Screening data: PubChem BioAssay, National Center for Advancing Translational Sciences (NCATS)
NPR1 antag = blocks ANP-stimulated signaling of human Npr1 receptor | P16066 | HEK293 hNpr1 GloSensor cGMP, ANP-stimulated luminescence | Potency, µM (doses to about 46.3 µM), for the others: top-dose activity change, negative = inhibition, most hits filed as inhibitors | actives 1.6% (n = 76,000) | AID 1347048; active = well fitted inhibition curve with a large enough effect; inconclusive = small, poorly fitted or top-dose-only effect; inactive = no such curve, though single readings can be large or run the other way;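 also: nearly all actives have a fitted effect of over 60% in size; nearly all hits also lower the signal before the agonist is added; a reference antagonist and vehicle were the controls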
Target sequence (P16066 whole entry, looked up): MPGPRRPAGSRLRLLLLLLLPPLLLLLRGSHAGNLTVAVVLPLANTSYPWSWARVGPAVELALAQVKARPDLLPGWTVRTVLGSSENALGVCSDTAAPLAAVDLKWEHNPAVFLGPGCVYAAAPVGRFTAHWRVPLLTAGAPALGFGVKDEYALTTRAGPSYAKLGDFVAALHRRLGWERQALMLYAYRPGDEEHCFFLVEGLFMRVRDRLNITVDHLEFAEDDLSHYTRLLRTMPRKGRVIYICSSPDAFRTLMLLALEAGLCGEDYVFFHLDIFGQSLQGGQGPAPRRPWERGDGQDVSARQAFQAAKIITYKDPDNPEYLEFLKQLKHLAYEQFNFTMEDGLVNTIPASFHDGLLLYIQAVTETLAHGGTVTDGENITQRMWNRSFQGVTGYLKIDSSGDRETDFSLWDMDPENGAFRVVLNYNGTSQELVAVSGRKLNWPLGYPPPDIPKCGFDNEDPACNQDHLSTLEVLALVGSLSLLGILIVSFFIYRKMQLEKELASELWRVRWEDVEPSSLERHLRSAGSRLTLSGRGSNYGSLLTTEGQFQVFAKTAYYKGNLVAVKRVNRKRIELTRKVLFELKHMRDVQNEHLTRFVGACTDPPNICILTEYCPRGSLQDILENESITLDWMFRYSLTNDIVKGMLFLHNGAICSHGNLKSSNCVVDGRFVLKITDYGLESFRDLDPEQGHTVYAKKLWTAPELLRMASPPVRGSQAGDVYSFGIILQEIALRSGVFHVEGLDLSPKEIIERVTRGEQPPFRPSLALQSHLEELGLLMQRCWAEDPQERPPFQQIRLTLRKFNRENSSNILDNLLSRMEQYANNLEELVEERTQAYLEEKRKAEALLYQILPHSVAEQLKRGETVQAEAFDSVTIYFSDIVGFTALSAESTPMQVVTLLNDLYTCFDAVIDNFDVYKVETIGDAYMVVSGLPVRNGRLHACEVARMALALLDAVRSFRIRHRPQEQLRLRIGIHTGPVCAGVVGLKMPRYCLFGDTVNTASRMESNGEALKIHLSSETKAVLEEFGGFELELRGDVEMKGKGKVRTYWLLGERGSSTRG
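Compound pre-incubated 30 min at room temperature on GloSensor-loaded HEK293 cells stably carrying hNpr1 and the pGS-40F cGMP biosensor. Stimulation uses hNppA at 0.1 nM final; luminescence is taken at baseline and 20 min post-agonist.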
An asterisk follows results filed as active; [ ] = dose if it differs, or a comment. % is scaled to controls: 0 for no effect and ±100 for the full control effect; potency is read from the fitted curve at half-maximal effect. An excerpt. The share of hits here may be higher or lower than overall.

`Cn1nccc1C(=O)NCCC1CCN(C(=O)Nc2ccccc2)CC1` gave NPR1 antag 0%.
CN(C)S(=O)(=O)N1CCc2nc3cc(-c4ccccc4)[nH]n3c(=O)c2C1 was read as NPR1 antag 2%.
`O=C(Nc1cccc(Cl)c1)[C@@H]1C[C@@H](c2ccc(F)cc2)N([S+](=O)([O-])c2cccnc2)C1` gave NPR1 antag -23%.
O=C(NC(Cc1ccncc1)C1CC(O)C1)c1cccc(N2CCNC2=O)c1 (stereo unspecified) was read as NPR1 antag 1%.
Screening O=C(NCc1ccccc1F)c1ccc2c(c1)CN(Cc1cccc(F)c1)CCO2 returned NPR1 antag -12%.
Screening CCN(Cc1ccccc1)C(=O)CCC[C@@H]1[C@H]2CCCN3CCC[C@@H](CN1Cc1cccnc1)[C@@H]23 returned NPR1 antag 5%.
Cc1ccc(C(=O)N(C)CC2CCOC2)cc1 (stereo unspecified) was read as NPR1 antag 1%.
For O=C(NCCN1CCCCC1)C1CCN(C(=O)N2CC3CC(C2)[C@H]2CCCC(=O)N2C3)CC1 (stereo partly specified) the results were NPR1 antag 2%.
CCOc1ccccc1NC(=O)Cn1c(=O)c(-c2noc(C)n2)c2n(c1=O)CCCCC2 was read as NPR1 antag -6%.
`CCc1nncn1C1CCN(C(=O)c2ccc(OC)cc2)CC1` gave NPR1 antag -3%.
`O=C(Nc1ccc2ncnc(N3CCCCC3)c2c1)c1ccccc1Br` gave NPR1 antag inconclusive.
Screening O=C(CCc1ccccc1)NCCC1CCN(C(=O)Nc2ccccc2F)CC1 returned NPR1 antag -9%.

Taken from the entries so far (7 entries):
Screening CCN(Cc1ccccc1)C(=O)CCC[C@@H]1[C@H]2CCCN3CCC[C@@H](CN1Cc1cccnc1)[C@@H]23 returned NPR1 antag 5%.
Cc1ccc(C(=O)N(C)CC2CCOC2)cc1 (stereo unspecified) was read as NPR1 antag 1%.
For O=C(NCCN1CCCCC1)C1CCN(C(=O)N2CC3CC(C2)[C@H]2CCCC(=O)N2C3)CC1 (stereo partly specified) the results were NPR1 antag 2%.
CCOc1ccccc1NC(=O)Cn1c(=O)c(-c2noc(C)n2)c2n(c1=O)CCCCC2 was read as NPR1 antag -6%.
`CCc1nncn1C1CCN(C(=O)c2ccc(OC)cc2)CC1` gave NPR1 antag -3%.
`O=C(Nc1ccc2ncnc(N3CCCCC3)c2c1)c1ccccc1Br` gave NPR1 antag inconclusive.
Screening O=C(CCc1ccccc1)NCCC1CCN(C(=O)Nc2ccccc2F)CC1 returned NPR1 antag -9%.

Later entries.
Screening Cc1ccc([S+](=O)([O-])N2CCCC(c3nn(-c4ccc(Cl)cc4)c(=O)[nH]3)C2)cc1 (stereo unspecified) returned NPR1 antag -6%.
`CC(=O)N1CCC(N[C@H]2C[C@@H](Cc3cc(CN(C)C)on3)C2(C)C)CC1` gave NPR1 antag 4%[70.6 µM].
Screening Cc1ccc(C(=O)N2CCC(C3CCN(S(C)(=O)=O)CC3)C2)c(=O)[nH]1 (stereo unspecified) returned NPR1 antag 18%.
Screening CC1CCN(C(=O)[C@@H](C)C2CC[C@@]3(C)CC[C@H](NC(=O)COc4ccccc4)[C@@H](C)[C@@H]3[C@H]2O)CC1 (stereo partly specified) returned NPR1 antag -2%.
O=C(C1CC1)N1CCCN(c2nc3ncccc3o2)CC1 was read as NPR1 antag 0%[70.6 µM].
`CCC1Oc2ccc(NC(=O)CC(C)(C)C)cc2CN(Cc2ccc(F)cc2)C1=O` (stereo unspecified) gave NPR1 antag -14%.
For O=C(NCc1ccccc1)c1ccc(N2CC3CC(C2)[C@H]2CCCC(=O)N2C3)nc1 (stereo partly specified) the results were NPR1 antag 2%.
O=C1C(N2CCN(S(=O)(=O)c3cc(F)ccc3F)CC2)CCN1Cc1cccnc1 (stereo unspecified) was read as NPR1 antag -1%.
`C[C@]1(O)CCN(C(=O)c2ccc(-c3cnco3)cc2)C[C@@H]1O` gave NPR1 antag -9%.
`COc1ccccc1CC(=O)Nc1ccc2c(N3CCCCC3)ncnc2c1` gave NPR1 antag inconclusive.
Cc1cc(C)cc(C(=O)N2CCC(n3cc(-c4nc(-c5ccccc5)no4)nn3)C2)c1 (stereo unspecified) was read as NPR1 antag inconclusive.
Screening CC1=C[C@@H](CNC(=O)CC(C)(C)C)[C@H](C(C)C)C[C@H]1CC(=O)O returned NPR1 antag -2%[70.6 µM].
O=C(N[C@H]1C[C@H]2C(=O)NC[C@@H](CCC(=O)N3CCCCC3)N2C1)c1ccc(F)c(Cl)c1 was read as NPR1 antag -1%.
CC(NC(=O)COc1ccc(F)cc1)C(=O)N1CCN(c2ccccn2)CC1 (stereo unspecified) was read as NPR1 antag 6%.
`CC1CCN(C(=O)CCNc2c(-c3ccc(F)cc3)nc3cnccn23)CC1` gave NPR1 antag -13%.
O=c1[nH]c(C2CCN(Cc3ccc(OC(F)(F)F)cc3)CC2)nn1Cc1ccccc1 was read as NPR1 antag 0%.
For CC1=C[C@@H](CNC(=O)c2ccccc2)[C@H](C(C)C)C[C@H]1CC(=O)N1CCOCC1 the results were NPR1 antag 3%[70.6 µM].
Screening CN(Cc1ccc(-c2ccccc2)cc1)C(=O)c1ccccc1 returned NPR1 antag inconclusive.
For O=C1NC2(CCN(C(=O)c3ccc4c(c3)OCO4)CC2)Oc2ccccc21 the results were NPR1 antag 3%.
Screening O=S(=O)(c1cccnc1)N1CC(c2nc(CCOCC3CCOCC3)no2)C1 returned NPR1 antag 2%.
For CN(CC1(C)CCOCC1)C(=O)c1ccc2cc[nH]c2c1 the results were NPR1 antag -1%.
CC(C)(C)CC(=O)NC1CCN(c2cnn(Cc3ccccc3)c(=O)c2)CC1 was read as NPR1 antag -29%.
Screening O=c1c2nc(-c3ccc(O)c(F)c3)ccc2ncn1Cc1ccccn1 returned NPR1 antag 2%[70.6 µM].
CC(C)C[C@@H]1N[C@H](C(=O)O)Cc2cn(CC3CC3)c3cccc1c23 was read as NPR1 antag inconclusive.

Four structures out of the list, sorted by SMILES length, low to high.
Screening CN(Cc1ccc(-c2ccccc2)cc1)C(=O)c1ccccc1 returned NPR1 antag inconclusive.
`CC1CCN(C(=O)CCNc2c(-c3ccc(F)cc3)nc3cnccn23)CC1` gave NPR1 antag -13%.
CC(C)(C)CC(=O)NC1CCN(c2cnn(Cc3ccccc3)c(=O)c2)CC1 was read as NPR1 antag -29%.
O=C(N[C@H]1C[C@H]2C(=O)NC[C@@H](CCC(=O)N3CCCCC3)N2C1)c1ccc(F)c(Cl)c1 was read as NPR1 antag -1%.

Later entries
`Cc1ccc(C(=O)N2CCC3(CC2)CC(=O)N(c2ccccc2)c2ccccc2O3)cc1` gave NPR1 antag 27%.
For O=C(CCn1cncn1)N1CCC2(CCC(=O)N(CCc3ccncc3)C2)CC1 the results were NPR1 antag -1%.
`O=C(NCCc1c[nH]c2ccccc12)C1CC(=O)N(c2n[nH]c3cccc(F)c23)C1` (stereo unspecified) gave NPR1 antag 0%.
Cc1cc(CN2CCC3(CC2)CCN(C(=O)c2ccco2)CC3CO)on1 (stereo unspecified) was read as NPR1 antag 1%.
`CC(C)CCN1C(=O)CC[C@]2(C(=O)N(C)Cc3ccco3)CCCC[C@@H]12` gave NPR1 antag -5%.
For COC[C@@H]1[C@H](C(=O)N2CCN(Cc3ccccc3)CC2)CCC(=O)N1C the results were NPR1 antag -2%.
`CC(NC(=O)c1csc2nc(-c3cccc(C(F)(F)F)c3)cn12)c1ccncn1` (stereo unspecified) gave NPR1 antag 0%.
Screening CCCN1CCN(C(=O)c2c(OC)cc(=O)n3c2CCCC3)CC1 returned NPR1 antag -2%.
Screening Cc1ccc(C(=O)N2CCN(c3cc(C(F)(F)F)ncn3)CC2)cc1 returned NPR1 antag -12%.
`CNC(=O)Nc1ccc(C)n(CC(=O)NCc2cccc(OC)c2)c1=O` gave NPR1 antag -3%.
For Cc1cn2nc(C(=O)Nc3cccc(F)c3C)cc2c(N(C)Cc2ccccc2)n1 the results were NPR1 antag 13%.
Screening CN(C)c1ccc(-c2nnnn2[C@H]2CO[C@H]3[C@@H]2OC[C@H]3O)cc1 returned NPR1 antag 3%[70.6 µM].
O=C(c1cccc(F)c1)N1CCC(Cc2nc(-c3ccccc3)no2)CC1 was read as NPR1 antag 6.3µM*.
`CCCS(=O)(=O)N[C@@H]1CN(c2ncccn2)C[C@H]1CN(C)C` gave NPR1 antag 2%.
COc1ccccc1N1CCN(CC[C@H]2CN(C(=O)CC(C)(C)C)CC[C@H]2CC(=O)O)CC1 was read as NPR1 antag 4%.
Screening Cc1ccc(CN2CCC3(CC2)COc2ccccc2NC3=O)cc1 returned NPR1 antag 0%[70.6 µM].
Screening CC(=O)N1C[C@@H]2CCCN3CCC[C@@H]([C@H]23)[C@H]1CCCC(=O)NCc1ccc(N2CCN(C)CC2)cc1 returned NPR1 antag 0%.
Cn1cc(CC(=O)N2CCCc3ncc(C(=O)N4CCCC[C@@H]4c4ccccc4)cc32)c2ccccc21 was read as NPR1 antag -20%.
For CC(C)CS(=O)(=O)Nc1ccc([C@H]2OCC(=O)N(Cc3ccc(F)cc3)[C@@H]2CO)cc1 the results were NPR1 antag 5%.
`CC1(c2ccccc2)N(Cc2ccccc2C#N)C(=O)OC12CCN(C(=O)Cc1ccc(O)cc1)CC2` (stereo unspecified) gave NPR1 antag 1%.
`Cn1c(COc2cccc(C(F)(F)F)c2Cl)nnc1C1CC(N)C1` (stereo unspecified) gave NPR1 antag -21%.
For COc1ccc(N2CCN(c3nc(C(=O)NC4CC4)cs3)CC2)cc1 the results were NPR1 antag inconclusive.
CCCNC(=O)N1C[C@@H]2CCCN3CCC[C@@H]([C@H]23)[C@H]1CCCC(=O)NC was read as NPR1 antag 1%.
`O=C(NCCN1CCCCC1)c1ccc(-c2nnc3ccc(NC(=O)C4CCC4)cn23)cc1` gave NPR1 antag 2%.

Overlap with the part before: 5 compounds, then new ones.
`CC1(c2ccccc2)N(Cc2ccccc2C#N)C(=O)OC12CCN(C(=O)Cc1ccc(O)cc1)CC2` (stereo unspecified) gave NPR1 antag 1%.
`Cn1c(COc2cccc(C(F)(F)F)c2Cl)nnc1C1CC(N)C1` (stereo unspecified) gave NPR1 antag -21%.
For COc1ccc(N2CCN(c3nc(C(=O)NC4CC4)cs3)CC2)cc1 the results were NPR1 antag inconclusive.
CCCNC(=O)N1C[C@@H]2CCCN3CCC[C@@H]([C@H]23)[C@H]1CCCC(=O)NC was read as NPR1 antag 1%.
`O=C(NCCN1CCCCC1)c1ccc(-c2nnc3ccc(NC(=O)C4CCC4)cn23)cc1` gave NPR1 antag 2%.
For CC(C)c1ccc(C(=O)N2CCC(C3CCNC3)CC2)cc1 (stereo unspecified) the results were NPR1 antag 0%.
CC(=O)N[C@@H]1CN(C(=O)CCc2c[nH]c3ccccc23)C[C@H]1CO was read as NPR1 antag 1%.
COc1cccc(CN2CCOC[C@H](Oc3ccc(C(F)(F)F)cn3)C2)c1 was read as NPR1 antag 0%[70.6 µM].
Screening COc1ccc(CN2C[C@@H]3C(=O)N(CCc4ccccc4)C(=O)[C@@H]3C2)c(OC)c1 returned NPR1 antag -22%.
CCN1c2cc(C(=O)NCc3cccc(F)c3)ccc2C(=O)N2CCCCCC21 (stereo unspecified) was read as NPR1 antag -5%.
`CCC(C)NC(=O)N1CCn2nnc(CCC(=O)N3CCOCC3)c2C1` (stereo unspecified) gave NPR1 antag -4%.
For COCCN1C(=O)CS(=O)C12CCN(S(=O)(=O)c1ccccc1)CC2 (stereo unspecified) the results were NPR1 antag -2%.
For COCCOCC(=O)N1CCC2(CC1)c1[nH]c3ccccc3c1CCN2C the results were NPR1 antag -3%.
For COCCNC(=O)[C@H]1C[C@H](Oc2ccccc2)CN1C(=O)NCCc1ccccc1 the results were NPR1 antag inconclusive.
For Cn1cnc(S(=O)(=O)N2CCCOCCNC(=O)[C@@H]3CCC[C@@H]32)c1 the results were NPR1 antag -2%.
For O=C(NCCCN1CCCC1=O)C1CN(S(=O)(=O)c2ccccc2)CC12CCCCC2 (stereo unspecified) the results were NPR1 antag -5%.
Screening O=C(c1ccccc1C(F)(F)F)N1CCc2c(nc3cc[nH]n3c2=O)C1 returned NPR1 antag -2%.
`COc1cccc(CCC(=O)N2CC(F)(F)C[C@H]2c2nc(C)no2)c1` gave NPR1 antag -11%.
For C=Cc1cccc(CN2CCC(CNC(=O)C3CCNCC3)C2)c1 (stereo unspecified) the results were NPR1 antag 6%.
Screening O=C1COCC2(CN1Cc1c(F)cccc1Cl)CN(c1ccc(C(F)(F)F)cn1)C2 returned NPR1 antag -13%.
For O=C1CCNCCCC(c2nc(-c3ccccc3)no2)CCN1 (stereo unspecified) the results were NPR1 antag 4%.
For COCCc1noc(-c2ccc(Cn3nc(C)cc3C)cc2)n1 the results were NPR1 antag 0%.
Screening CC(C)(C)NC(=O)N1CCC2(CCC(=O)N(CC3CC3)CC2)CC1 returned NPR1 antag -14%.
`COC(=O)c1ccc2nc(C[C@@H]3C[C@@H](C(C)C)[C@H](CNC(=O)C4CCCCC4)C=C3C)[nH]c2c1` gave NPR1 antag -15%.
`COCc1ncc(C)n1CC1CCN(C(=O)c2cccc(C)c2)CC1` gave NPR1 antag -2%.
For O=c1c2nc(Nc3cccnc3)ccc2ncn1Cc1ccccc1 the results were NPR1 antag 2%[70.6 µM].
For CNC(=O)c1cccc(-c2ccc(C(C)(C)C#N)cc2)n1 the results were NPR1 antag 2%.
For Cc1cnc(CCNC(=O)COc2ccccc2)n1C1CCC1 the results were NPR1 antag -10%.
O=C(N[C@H]1CO[C@H]2[C@@H]1OC[C@@H]2Nc1nccc(-c2ccc(-c3ccccc3)cc2)n1)c1ccccc1 was read as NPR1 antag inconclusive.
`O=C(CCc1ccccc1)N1CCN(C(=O)c2nnn3c2COC(c2ccccc2)C3)CC1` (stereo unspecified) gave NPR1 antag -8%.
